# Screens (PubChem)
# AID504770: growth inhibition of E. coli YBA685, primary screen, V. cholerae RctB inhibitors. E. coli YBA685 rctB-dependent plasmid, OD600 growth, 3 h; stronger effect = lower value. z-score (no concentration beside the values). 0.27% of 130,000 active. AID 504770, 2011;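 active = z-score under -2 on both plates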;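 note: wells of about 30 µL received 100 nL stock; score is relative to mean and SD of the test wells; the first replicate is given; strong numbers were not always called active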
# CapD inh: Bacillus anthracis CapD inhibitors, primary screen, biochemical, fluorescence intensity | purified CapD enzyme, fluorescence intensity read-out; stronger effect = lower value; some hits fall short of the stated cut | AID 492967, 2010 | 0.23% of 140,000 active | CapD gamma-glutamyltranspeptidase (Bacillus anthracis Ames Ancestor) | z-score (test concentration not listed);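 active = z-score under -4 in either of two replicates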;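 note: stock transfer was 100 nL into about 40 µL; score is relative to mean and spread of the plate; one replicate is shown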
# Starred values were filed as active, the others as inactive; · = not tested or not shown; & = joins results of further samples.
mol	AID504770	CapD inh
CCc1cc(C(=O)OC)c(NC(=O)CN2CC(C)CC(C)C2)s1 (stereo unspecified)	-0.9	1.4
CSC(SC)=C(C#N)c1ccccc1	·	-1.6
OC[C@H]1O[C@@H](O[C@@H]2[C@@H](CO)O[C@](O)(CO)[C@H]2O)[C@H](O)[C@@H](O)[C@H]1O	0.25	-0.18
CN(C)/C=C/C(=O)C(c1ccccc1)c1ccccc1	-1.5	-2.3
Cc1cc(NC(=O)CCc2ccccc2)no1	-0.2	0
NC(=S)COc1cc(Cl)cc(Cl)c1	-0.25	0.62
O=C(Cc1coc2cc3c(cc12)CCC3)OC1CCCCC1=O (stereo unspecified)	-1	·
O=C(CSc1nnc(SCC(=O)N2CCCC2)s1)N1CCCC1	0.9	·
COC(=O)c1cnc(NCc2cccnc2)c2ccccc12	1.9	46
CCOC(=O)c1nnc(Cc2ccc(F)cc2)o1	-0.7	0.065
Cc1c(C(=O)Nc2ccccc2Cl)sc2nc3n(c(=O)c12)N=C(c1cc(O)ccc1O)CS3	-0.2	2.6
O=C(CC1Sc2ccccc2NC1=O)N/N=C/c1cccc2c1OCO2 (stereo unspecified)	·	44
CSc1ncc(C(=O)NN2C(=O)C3C4C=CC(CC4)C3C2=O)n1C (stereo unspecified)	·	-0.3
CC(=O)Oc1cccc(N2C(=O)C3C(C2=O)C2(C)C=CC3(C)O2)c1 (stereo unspecified)	·	1.2
Cc1ccc(CN2CCN(c3ncccn3)CC2)c(C)c1	-0.05	-0.21
CCn1c(SCCNS(=O)(=O)c2ccc(C)cc2)nnc1-c1ccc(Cl)cc1	2.5	·
CCN(CC)c1ccc(C(=O)NN2C(=O)c3c(C)nc4ccc(Br)cc4c3C2=O)cc1	·	2.2
CCOC(=O)CN1C(=O)C(O)(C(C)C(=O)c2ccccc2)c2ccccc21 (stereo unspecified)	·	-0.43
NC12CC3CC(CC(C3)C1)C2	0.65	-0.11&1.5
NC(=O)CSc1nc2ccccc2n1CCOc1ccc(Cl)cc1	·	-0.19

# Reformatted as labelled records: part of the list above.
> NC(=S)COc1cc(Cl)cc(Cl)c1
  AID504770: -0.25
  CapD inh: 0.62
> CCN(CC)c1ccc(C(=O)NN2C(=O)c3c(C)nc4ccc(Br)cc4c3C2=O)cc1
  AID504770: ·
  CapD inh: 2.2
> COC(=O)c1cnc(NCc2cccnc2)c2ccccc12
  AID504770: 1.9
  CapD inh: 46
> CCOC(=O)CN1C(=O)C(O)(C(C)C(=O)c2ccccc2)c2ccccc21 (stereo unspecified)
  AID504770: ·
  CapD inh: -0.43

# Later entries:
mol	AID504770	CapD inh
N#CC(C#N)=Cc1ccc(-c2cc(C(F)(F)F)ccc2Cl)o1	·	-0.12
COc1ccc(NC(c2ccccn2)c2c(C)[nH]c3ccccc23)c(OC)c1 (stereo unspecified)	-1	-1.1
CCCC(=O)Nc1cc(C)c(O)c(-c2nc3cc(Cl)ccc3o2)c1	-0.9	·
COCCn1c(=NC(=O)/C=C/c2cccs2)sc2cc(Br)ccc21	-0.2	0.94
NC(=S)N1CCCCC1	-0.7	·
O=C(NCc1nc2ccccc2n1Cc1ccccc1)c1ccccc1	0.8	0.85
N#C/C(=C\c1ccccc1[N+](=O)[O-])c1nc(-c2cc3cc(Br)ccc3oc2=O)cs1	·	-0.07
Fc1cccc(Cl)c1-c1[nH]c(=S)nc2[nH]c(=S)[nH]c(=S)c12	0.6	3.9
C=CCOc1ccc(C2C(C(=O)OCC)=C(C)N=c3s/c(=C4/C(=O)Nc5ccccc54)c(=O)n32)cc1OCC (stereo unspecified)	·	-1.3
CC1=C(C(=O)OC2CCCCCC2)C(c2ccc(OCc3ccccc3)cc2)NC(=O)N1 (stereo unspecified)	·	0.21
O=C(COC(=O)c1cc(-c2ccco2)nc2ccccc12)Nc1ccc(F)c(F)c1F	0.1	·
CC1(C)CC(=O)C2=C(C1)Nc1ccccc1N(C(=O)Cc1ccc(Cl)cc1)C2c1cccnc1 (stereo unspecified)	·	1.1
O=C(NC(Cc1c[nH]c2ccccc12)C(=O)OCc1ccccc1)OCCCc1cccnc1 (stereo unspecified)	·	-0.84
C=CCn1c(SCC(=O)c2ccccc2)nnc1-c1ccc(OC)c(OC)c1	-1.1	-0.72
Nc1nonc1-n1nnc2c1CCCC2=O	-0.35	0.03
C[C@H](O)C(=O)Nc1c(I)c(C(=O)NC(CO)CO)c(I)c(C(=O)NC(CO)CO)c1I	·	-0.54
Cc1cccc(N2C(=O)NC(=O)/C(=C\c3cn(CC(=O)N4CCOCC4)c4ccccc34)C2=O)c1	·	0.14
Cn1c(-c2ncc(C(F)(F)F)cc2Cl)n[nH]c1=S	2.1	9
Clc1ccc(CSc2nnc(-c3sccc3-n3cccc3)o2)cc1	·	-0.49
O=C(c1ccccc1)c1cccc2c1NCC2	-0.35	-1.3

# Next structures
mol	AID504770	CapD inh
N#CCC(=O)Nc1ccc(F)c(F)c1F	·	-0.12
COC(=O)c1cnc(Sc2ccc(Cl)cc2)nc1C(F)(F)F	-0.35	0.03
O=C(Nc1nccs1)C1CCN(S(=O)(=O)c2ccccc2)CC1	-2.3*	·
CCN1CCN(C(=O)C2CCC(=O)N(c3cc(OC)c(OC)c(OC)c3)C2c2ccc(OC)cc2)CC1 (stereo unspecified)	-0.05	-0.035
CCCOc1ccccc1N=c1ssc2c1-c1cc(OC)ccc1NC2(C)C	·	-0.6
N=C(N)SCCN1C(=O)c2ccccc2C1=O	-1.5	0.25
Cc1nn(C(=O)c2cccnc2)c(-c2ccccc2)c1Sc1ccccc1	-0.55	22
Clc1ccc(CNc2ccc(N3CCOCC3)cc2)cc1Cl	0.95	0.25
O=C(NCc1ccccc1)c1cnc(N2CCOCC2)nc1	0.15	0.92
CCOC(=O)c1cc(C#N)c(C)nc1N1CCN(C(=O)OCC2CCCN2C(=O)OC(C)(C)C)CC1 (stereo unspecified)	·	0.82
COc1ccccc1C1CCN(C(=O)C2CCCCC2)CC1	-0.7	0.64
COCC(C)NC(=O)c1ccc2c(c1)OCO2 (stereo unspecified)	-0.45	·
CCN(CC(=O)Nc1ccc(OC)cc1)C1CCCCC1	-1.1	·
CC1(C)CC(NCc2ccco2)CCO1 (stereo unspecified)	-0.25	-0.13
COc1ccc(CNC(=O)C(C)Nc2cc(OC)c(Cl)cc2OC)cc1 (stereo unspecified)	0.5	·
CCOC(=O)c1cc(-c2ccc(Cl)c(Cl)c2)[nH]c1N1CCOCC1	·	4.3
O=C(NC1CCCCCC1)c1ccc2c(=O)n3c(nc2c1)CCCCC3	-0.2	-0.035
CCCc1[nH]n(-c2ccc(F)cc2)c(=O)c1C=NCCc1ccc(Cl)cc1	·	-0.15
CC1(C)CC(=O)C(C=NCCN2CCN(C(=O)NC34CC5CC(CC(C5)C3)C4)CC2)=C(O)C1	0	0.32
O=C(NC1CC1)c1ccc2cn[nH]c2c1	-0.8	-0.94

# Continued:
mol	AID504770	CapD inh
Cc1nccn1CCCN1C(=O)OC(C)(C)C1(C)O (stereo unspecified)	-0.4	0.035
O=C1/C(=C/c2cc([N+](=O)[O-])cc(Br)c2O)SC(=S)N1c1ccc([N+](=O)[O-])cc1	·	-0.13
Cc1cccn2c(=O)c(C=Nc3ccc(Cl)cc3)c(NCCO)nc12	2.5	-0.68
Cc1cc(COc2ccc(-c3ccccc3)cc2)no1	-0.15	·
CCc1cc(C(=O)O)n(C)n1	0.45	·
Cc1c(C(=O)N(C)C2CCN(C)CC2)cnn1-c1ccc(F)cc1	-0.05	-0.08
CCOC(=O)CSC1=NN2CCCC(=O)N=C2S1	-0.35	-0.58
O=C(Cc1ccccc1)Nc1ccc(Cl)c(Cl)c1	0.2	0.12
CC(=O)NCCC(=O)Oc1c(C)ccc(C)c1C	0.35	·
CCOC(=O)N1CCN(C(=S)Nc2ccc(C)c(C)c2)CC1	-0.55	·
COc1cc(C)nc(OCCNS(=O)(=O)c2cc(C)ccc2C)n1	-0.5	0.37
O=C1OC(c2ccccc2)=N/C1=C\c1cc(Br)cs1	·	0.21
CCNC(=O)c1snc(Nc2ncc(C)o2)c1N	-1.4	-3.3
Cc1ccc(C)n1-c1cccc(S(=O)(=O)N2CCOCC2)c1	0.9	0.54
CC(C)(C)C(=O)NCC(c1cccnc1)N1CCN(c2ccccc2)CC1 (stereo unspecified)	0.05	0.1
NC(=O)CSc1nnc(-c2ccco2)n1Cc1ccco1	0.1	·
O=C(COc1ccccc1)Nc1ccc(C(=O)c2ccccc2)cc1	1.6	0.46
O=C(c1ccc(S(=O)(=O)N2CCOCC2)cc1)N1CCn2c1nc1ccccc12	0.15	·
c1ccc(N=c2oc3ccccc3cc2-c2nc3ccccc3[nH]2)cc1	0.3	0.63
COc1ccc(C2Nc3ccc4ncccc4c3C3=C2C(=O)CCC3)cc1OC (stereo unspecified)	·	-0.44

# Random excerpt: 5 records from the list
mol	AID504770	CapD inh
Fc1cccc(Cl)c1-c1[nH]c(=S)nc2[nH]c(=S)[nH]c(=S)c12	0.6	3.9
COc1ccc(NC(c2ccccn2)c2c(C)[nH]c3ccccc23)c(OC)c1 (stereo unspecified)	-1	-1.1
NC(=S)COc1cc(Cl)cc(Cl)c1	-0.25	0.62
Cc1cc(COc2ccc(-c3ccccc3)cc2)no1	-0.15	·
CN(C)/C=C/C(=O)C(c1ccccc1)c1ccccc1	-1.5	-2.3

# Following part
mol	AID504770	CapD inh
COc1ccc(N2CCN(S(=O)(=O)c3c(C)cccc3Cl)CC2)c(OC)c1	·	-1.1
Cc1onc(-c2ccccc2Cl)c1C(=O)N1CCCCC1C(=O)O (stereo unspecified)	1.6	0.35
COCCN1C(=O)CS/C1=C(/C#N)C(=O)NCCc1ccccc1	-0.05	·
COc1ccc(-c2nnc(SC(C)c3nc4ccccc4c(=O)[nH]3)n2CC2CCCO2)cc1 (stereo unspecified)	-0.3	·
COc1ccc(C(=O)O/N=C2\C(=O)N(c3ccccc3)c3ccccc32)cc1	·	-0.2
O=[N+]([O-])c1ccc(Oc2cc(S(=O)(=O)c3ccccc3)ccc2[N+](=O)[O-])nc1	·	-0.025
O=C(Nc1ccccc1)Nc1ccc2c(c1)C(=O)OC2	-0.75	·
Fc1ccccc1CNC1CCCC1	-0.15	·
Cc1ccc(C)n1-c1ccc(C(=O)N(C)CCCc2[nH]nc(N)c2C#N)cc1	0.25	·
O=C(OCc1nc2ccccc2s1)C12CC3CC(CC(O)(C3)C1)C2	0.75	·
O=C1CCCC2=C1C(c1ccccc1)c1c([nH]n(-c3ccccc3)c1=O)N2 (stereo unspecified)	-0.45	-0.35
CC(C)(C)c1ccc(NC(=O)c2ccsc2)cc1	0.7	-0.71
O=C(Nn1c(SCc2ccc(F)cc2)nc2ccsc2c1=O)c1ccccc1	0.65	-0.54
O=C(CSc1nnc(-c2cccs2)o1)Nc1ccc2c(c1)OC1(CCCCC1)O2	-0.95	·
Cc1cc(C(=O)COc2ccc3oc4c(c3c2)CCCC4)c(C)n1Cc1cccs1	0.25	·
N=c1n(CCO)c2ccccc2n1Cc1ccccc1	-0.75	-0.065
CC1(C)CC(=O)C2=C(C1)OC1=C(C(=O)CC(C)(C)C1)C2c1ccc(-c2ccccc2F)o1	·	0.36
O=c1c2ccccc2nnn1CSc1nc2cc(Cl)ccc2s1	-0.5	·
CC1(C)CC(NC(=S)Nc2ccc(S(N)(=O)=O)cc2)CC(C)(C)N1	1.5	-0.61
COC(=O)C1CCCCCC1=O (stereo unspecified)	2	0.69

# (next part)
mol	AID504770	CapD inh
COc1cc(C2C(C(=O)Nc3ccccc3F)=C(C)NC3=C2C(=O)CC(c2ccccc2)C3)ccc1O (stereo unspecified)	·	22
O=C(NCc1ccccn1)c1ccc(NC2=NC3CS(=O)(=O)CC3S2)cc1 (stereo unspecified)	-2.2	1.8
CC(C)CCNS(=O)(=O)c1ccc(Cl)c(Cl)c1	-1.1	-0.29
CC1CCc2c(sc3ncnc(Oc4ccccc4F)c23)C1 (stereo unspecified)	-0.65	0.61
CCOC(=O)CSc1nc2sc3c(c2c(=O)n1C1CCCCC1)CCN(C)C3	·	51
Cc1cc(=O)oc2cc(OCC(=O)NCc3ccco3)ccc12	-0.4	·
O=C1CSC(c2ccc(Cl)c(Cl)c2)N1c1ccc(F)cc1 (stereo unspecified)	·	-0.2
COc1ccc(OCc2c(C#N)c3ccccc3n2C)cc1	0.95	0.03
CCC1CCCCN1S(=O)(=O)c1ccc(NC(=O)COc2ccc(OC)cc2)cc1 (stereo unspecified)	1.2	-0.67
O=C(Nc1ccc(-c2ccccc2)cc1)C1CC1c1ccccc1 (stereo unspecified)	-1	0.14
CCCNC(=O)c1ccc2c(c1)ncn2-c1cccc(Cl)c1	-0.85	0.76
COc1ccc(N(Cc2ccc3c(c2)CCN3C)C(=O)c2ccc(C(F)(F)F)cc2)cc1	·	-0.09
O=c1[nH]c2c(s1)C(c1ccccc1)C1C3CCC(C3)C1S2 (stereo unspecified)	-0.5	-0.12
O=C(Cc1ccc(F)cc1)NC1CCSC1=O (stereo unspecified)	1.2	0.67
CC(Nc1ncnc2nc[nH]c12)c1ccccc1 (stereo unspecified)	-0.5	-0.12
CCN1C(=O)NC(=O)/C(=C\c2cn(CC(=O)N3CCCC3)c3ccccc23)C1=O	-1.1	-1.1
CC1CC(=O)Nc2ccccc2N1S(=O)(=O)c1ccc(F)cc1F (stereo unspecified)	0.4	0.65
